# High-throughput results as filed in PubChem.
# T cruzi inh – blocks replication of Trypanosoma cruzi; AID 1885; T. cruzi beta-gal in NIH3T3, luminescence, 90 h; hit rate 1.4% among 300,000; inhibition, % (test concentration not listed);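 active = mean inhibition across valid replicates above about 55%, limit read from the data; inconclusive = mean below that limit but half or more replicates reach it; inactive = mean below it, under half of replicates reach it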;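 note: signal also drops with host cell toxicity which is not excluded here; 0% = plate median of DMSO wells and 100% = zero luminescence signal; higher percent means less beta-gal luminescence so fewer parasites; stock transfer was 50 nL into about 50 µL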
# MLL AF4-AF9 inh – blocks AF4 peptide binding to human AF9 | inhibition, % at 10 µM | hit rate 0.47% among 350,000 | AID 651704 | P42568 | AlphaScreen, biotin-AF4 peptide binding to FLAG-AF9;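 active = every replicate reaching a set inhibition limit, whatever the replicate mean, cut at about 25% in these data; inconclusive = mean inhibition reaches that limit but some replicates miss it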;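 note: 0% = plate neutral control median and 100% = total signal loss; the record names both 10 and 1 µM as test concentration; the first replicate is given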
# Target sequence (P42568 whole entry, looked up): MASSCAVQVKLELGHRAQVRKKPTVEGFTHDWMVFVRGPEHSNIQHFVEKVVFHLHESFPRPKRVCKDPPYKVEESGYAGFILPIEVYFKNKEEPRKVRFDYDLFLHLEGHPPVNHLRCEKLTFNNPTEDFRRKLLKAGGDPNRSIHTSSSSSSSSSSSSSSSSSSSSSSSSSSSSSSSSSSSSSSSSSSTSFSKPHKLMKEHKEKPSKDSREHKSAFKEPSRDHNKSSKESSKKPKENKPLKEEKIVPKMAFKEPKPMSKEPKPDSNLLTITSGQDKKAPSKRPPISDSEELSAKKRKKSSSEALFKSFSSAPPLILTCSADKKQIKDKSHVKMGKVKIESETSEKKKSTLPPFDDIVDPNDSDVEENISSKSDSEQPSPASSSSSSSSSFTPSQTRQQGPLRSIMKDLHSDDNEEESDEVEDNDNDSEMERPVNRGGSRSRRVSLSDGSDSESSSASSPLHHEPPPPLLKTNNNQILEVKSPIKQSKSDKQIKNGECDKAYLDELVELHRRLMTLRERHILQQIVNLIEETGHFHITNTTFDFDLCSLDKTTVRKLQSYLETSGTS
# Calb FLC – affects C. albicans growth with fluconazole | growth inhibition, % (test concentration not listed) | C. albicans CaCi-2 (fluconazole-resistant clinical isolate) + fluconazole, Alamar Blue growth, 48 h | hit rate 0.57% among 300,000 | AID 1979;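 active = most replicates above 75%; inconclusive = exactly half above 75%; inactive = most below 75%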;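 note: all wells also contain fluconazole at 8 µg/ml as a sub-toxic cotreatment; 0% = median of DMSO wells and 100% = median of geldanamycin control wells; wells of about 8 µL received 7.5 nL stock; the first replicate is given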
# RanGTP-Imp inh – disruptors of Ran-importin-beta complex formation – biochemical, FRET, CFP-Ran, YFP-importin-beta, homogeneous, primary screen; cell-free CFP-Ran/YFP-importin-beta FRET ratio; inhibition, % (test concentration not listed); hit rate 1.1% among 300,000; AID 2216;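 active = most replicates above 15%; inconclusive = exactly half above 15%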;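 note: 0% = DMSO wells and 100% = Ran loaded with GDP instead of GTP; wells of about 40 µL received 100 nL stock; the first replicate is given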
# LANA-H2A inh – blocks KSHV LANA binding to histone H2A/H2B; inhibition, % (no concentration beside the values); hit rate 0.6% among 320,000; cell-free LANA-H2A/H2B peptide, fluorescence polarization; Q9QR71; in the data active = inhibition mostly above about 10%, no sharp cut-off; inactive = mostly below about 6.7%;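 note: stock transfer was 7.5 nL into about 10 µL; 0% = median of vehicle wells and 100% = median of positive control wells; one replicate is shown; the record names a cut of 25% in any replicate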
# Vif A3G – HIV-1 Vif–A3G interaction blockers – biochemical, TR-FRET, GST-Vif 1-94, biotin-A3G peptide, dose response retest, primary screen (AID 1117319); TR-FRET GST-Vif / biotin-A3G peptide binding; higher % means a stronger effect; test concentration not given here; strong numbers were not always called active; one-dose inhibition, %; IC50 in µM for titrated hits; hit rate 0.57% among 260,000;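 active = above the screen mean plus three standard deviations and confirmed in dose response; inconclusive = results disagree or hit not tested in dose response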;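 note: Vif residues 1-94 fused to GST binding biotinylated APOBEC3G peptide 110-148; 0% = full assay without inhibitor and 100% = GST in place of GST-Vif; retest series ran down from 100 µM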
# A1 inh – inhibitors of the anti-apoptotic protein A1, read as caspase activation; MEF A1-2A-BIM cells, Caspase-Glo 3/7 luminescence, 3 h; percent of clofoctol response, vehicle zero; AID 2462; caspase activation, % (concentration not given with the values); hit rate 0.066% among 330,000;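 active = over half of replicate activation scores above 10%, or exactly half above 10 with the replicate mean above 10; inconclusive = replicate mean below 10 yet half the replicates above 10; inactive = over half of replicates below 10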;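 note: wells of about 30 µL received 50 nL stock; many hits fall short of the cut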
# Beta apoptosis – beta cell apoptosis inhibition; INS-1E cytokine-induced death, ATP luminescence, 48 h; percent of positive-control rescue, neutral wells zero; protection from apoptosis, % (concentration not given with the values); hit rate 0.8% among 300,000; AID 435005;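 active = all replicates at 75% or more, or half of them and the mean; inconclusive = half reach 75% but not the mean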;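 note: 0% = cytokine-treated negative control wells and 100% = positive control rescue; higher means more ATP so stronger rescue from cytokine killing; wells of about 40 µL received 100 nL stock; the first replicate is given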
# Active calls of the source: *; u = inconclusive; x = not tested or not shown.
SMILES,T cruzi inh,MLL AF4-AF9 inh,Calb FLC,RanGTP-Imp inh,LANA-H2A inh,Vif A3G,A1 inh,Beta apoptosis
O=C(Oc1c(-c2ccccc2)c(=O)n2c3c(cccc13)CC2)c1cccc([N+](=O)[O-])c1,0,2.1,-2,u,4.8,13%,1.3,1
CCc1nc2oc3ccccc3c(=O)c2c(=O)n1-c1ccc(C)cc1,9,0.3,-8,2.9,-3.6,7%,-1.7,4
O=C(O)c1ccc(CSc2n[nH]c(-c3ccco3)n2)cc1,-8,x,10,-0.2,1.7,28%,-0.7,1
CCSc1nc2sc3c(c2c2nnc(SCC(=O)NCc4ccco4)n12)CCCC3,18,x,-4,-2.8,1.3,x,-2.4,2
Cc1ccc(N=Cc2nc(/C=C/c3cccc([N+](=O)[O-])c3)oc2O)cc1,-9,5.7,7,0.9,-0.3,-4%,-1.1,-4
Clc1ccc(CSc2nnc(-c3ccncc3)o2)c(Cl)c1,50,x,13,-0.7,-2.4,3%,1.5,-8
COc1ccc(CNC(=O)C2CCN(S(=O)(=O)c3ccc4nc5c(c(C(=O)O)c4c3)CC(C)CC5)CC2)cc1 (stereo not given),8,2.5,2,1.3,-2.3,x,0.8,-3
Cc1cc(NS(=O)(=O)c2ccc(NC(=O)Nc3ccccc3)cc2)no1,-16,x,-12,0.8,4.5,3%,-6.0,-4
COc1cc2c(cc1OC)-c1cc(N3CCCCCC3)nc(=O)n1CC2,11,x,-20,2.9,2.0,4%,-0.6,9
O=C(NC12CC3CC(CC(C3)C1)C2)c1cc2nc(-c3ccco3)cc(C(F)(F)F)n2n1,29,x,-2,6.7,x,2%,-0.8,48
CCCc1cc(NCc2ccccn2)n2c(nc3ccccc32)c1C#N,34,0.6,29,-5.3,3.8,-8%,-0.1,24
CC(=O)c1ccc(NC(=O)COc2ccccc2C(=O)Nc2ccc(C)cn2)cc1,0,-1.7,-7,u,2.1,-86%,-0.1,5
CCN(CC)CCN(Cc1cc2cc3c(cc2[nH]c1=O)OCO3)C(=S)NCCCN(C)C,-15,5.8,18,-4.8,-2.1,x,0.6,2
CCC1(O)CC(c2ccccc2)=NN1C(=O)c1ccccc1F (stereo not given),-32,-0.2,-12,-3.5,-5.2,x,0.4,-2
CCC1CCCCN1C(=O)c1nn2cccnc2c1Cl (stereo not given),-6,x,15,5.6,-0.5,6%,-0.5,x
CCOC(=O)C1CCN(C(=O)CNC(=O)Cn2c(C)cc3ccccc3c2=O)CC1,-1,-1.5,-9,4.4,3.6,x,-0.1,-5
Cc1ccc(C2=NN(C(=O)CCCC(=O)O)C(c3ccc4c(c3)OCO4)C2)cc1 (stereo not given),6,-2.6,21,3.2,2.9,x,0.3,1
Cc1cc(=O)[nH]c2c1c(C)nn2C1CCOC(C)(C)C1 (stereo not given),-2,x,u,-1.0,-6.8,-2%,0.2,x
COc1ccc(C2C(C#N)=C(N)Oc3n[nH]c(C)c32)cc1Cn1nc(C)c([N+](=O)[O-])c1C (stereo not given),-9,x,11,1.6,6.2,13%,-0.6,-3
Nc1cccc(-n2cccc2)c1,-12,9.8,-17,-11,0.6,-1%,-0.3,2
CC(=O)c1ccc(OCC(=O)N2CCCC2c2ccc3c(c2)OCCCO3)cc1 (stereo not given),x,-1.1,x,x,-3.7,-3%,-0.5,-17
CN(C(=O)c1cccc(NC(=O)Cc2ccc([N+](=O)[O-])cc2)c1)C1CCC1,x,0.8,x,x,1.5,x,0.5,-5
O=C(c1cc(-c2ccc3c(c2)OCO3)on1)N1CCN(c2ccccc2)CC1,-23,x,5,1.9,6.2,u,-1.8,-3
O=C1[C@@H]2[C@@H]3C[C@@H]([C@H]4ON=C(c5ccc(Cl)cc5)[C@@H]34)[C@@H]2C(=O)N1C1CCCCC1,9,-3.7,28,4.8,-3.8,x,-0.3,4
Cc1cnc2ncc3sccc3c2c1,4,-0.1,-1,x,-1.8,11%,-0.8,4
O=C(NNS(=O)(=O)c1ccc(Cl)cc1)c1cc(-c2ccccc2)nc2ccccc12,-15,6.3,36,u,0.0,u,0.7,x
CS(=O)(=O)N1CCC(C(=O)Nc2cc(Cl)ccc2Cl)CC1,3,-1.4,-4,-0.9,-2.1,13%,1.2,-6
COc1cc(C(c2nnnn2C(C)(C)C)N2CCN(C)CC2)cc(OC)c1OC (stereo not given),-4,x,-6,3.1,-4.7,-2%,-0.4,-3
CC(=O)Nc1ccc(NC(=O)C(C)OC(=O)c2ccc3c(c2)OCCO3)cc1 (stereo not given),-10,-9.3,-15,0.4,-1.1,16%,-0.5,-8
CCOc1ccc(-c2noc(-c3ccncc3)n2)cc1OCC,10,x,-11,-2.4,-0.6,7%,-0.5,-8
Nn1c(SCC(=O)NCCC2=CCCCC2)nnc1C1CCCCC1,4,x,-15,-2.5,-1.0,21%,0.9,x
O=C(Oc1ccc(/C=N/NC(=O)c2ccccn2)cc1)c1cccc(F)c1,-22,0.2,53,-0.5,3.5,x,-0.7,-3
COc1ccc(Sc2ccc(-c3nc4cnccn4c3NC3CCCCC3)cc2OC)cc1,x,-13,x,x,-1.4,x,0.4,4
O=C(Nc1cccc(O)c1)c1ccc2c(c1)C(=O)N(Cc1ccco1)C2=O,-4,-3.5,-5,2.4,3.3,-1%,0.2,-1
COc1cc(/C=N/NC(=O)c2cccs2)ccc1O,-1,-1.2,-4,4.3,-4.8,3%,-1.7,2
Cn1nc(C(=O)OCC(=O)Nc2ccc(S(N)(=O)=O)cc2)c2ccccc2c1=O,-5,-2.7,-2,7.3,-7.2,x,2.1,-8
Cc1ccc(O)c(N=Nc2ccc(S(=O)(=O)N3CCCC3)cc2)c1,11,9.5,0,-2.5,7.3,8%,-3.2,2
Cc1cc(C(=O)N/N=C/c2cc([N+](=O)[O-])ccc2O)c2ccccc2n1,-24,x,24,-8.0,1.0,1%,-0.3,22
O=C(CN1CCN(Cc2ccccc2)CC1)Nc1nnc(C(F)(F)F)s1,18,0.0,11,-1.2,6.0,x,0.4,x
Cc1c(Cl)c(C(=O)NC2CCCC2)nn1C,12,x,-6,-1.8,-5.0,-6%,2.1,-11
O=C(NCc1ccccn1)c1ccc(NS(=O)(=O)c2ccccc2)cc1,-11,-2.9,-5,2.2,-3.3,-3%,-0.1,-7
O=c1cn[nH]c2ccccc12,-4,-44,0,21*,-2.0,x,0.7,-5
Cc1cc(C)n2nc(SCC(=O)N3CCCCC3C)nc2n1 (stereo not given),x,-2.6,x,x,3.4,x,-0.7,-7
O=C(O)CCc1ccc(S(=O)(=O)Nc2ccccc2N2CCCCC2)cc1,x,-3.0,x,x,0.9,x,0.5,-4
O=C(NC1CCCC1)c1ccc(S(=O)(=O)N2CCCC2)cc1,-6,x,-8,1.5,-4.6,11%,-0.7,x
COc1cccc(/C=C2\CCc3ccccc3C2=O)c1,15,5.7,5,5.8,2.3,20%,-10.0,4
O=C(CSC1CCCCC1)N1CCN(c2ccccc2)CC1,-8,x,-5,-0.1,1.2,1%,-0.4,2
CCOc1ccc(N(CC(=O)NCCSCc2ccco2)S(=O)(=O)c2ccc(C)cc2)cc1,6,0.1,0,5.5,-0.7,x,-0.5,x
CCn1c(SCc2ccc(C(=O)O)cc2)nnc1-c1ccc(Cl)cc1,8,-5.9,-3,2.2,6.6,x,0.0,x
O=C(c1nc2ccc(Cl)cn2c1CN1CCCC(CO)C1)N1CCc2ccccc2C1 (stereo not given),11,-2.6,-4,4.2,-35,5%,-0.4,-3
CC(C)(C)c1ccc(C(=O)Nc2cccc([N+](=O)[O-])c2)cc1,18,x,-4,0.9,-0.6,9%,-3.6,2
CC(C)C(=O)N1CCN(c2ccc(NC(=O)c3cccs3)cc2)CC1,-13,x,0,3.4,-7.8,11%,0.8,5
Cc1cccc(-n2ncc3c(N4CCCC4)ncnc32)c1,18,x,-9,-0.5,1.0,-8%,-7.9,0
COc1cc(C2C(C#N)=C(N)OC3=C2C(=O)CC(C)(C)C3)cc2c1OCO2 (stereo not given),4,-2.8,-3,-1.3,2.4,x,1.2,-4
CCCN(CCC)S(=O)(=O)c1ccc(C(=O)Nc2cccnc2)cc1,-2,1.4,-12,-1.9,5.2,-3%,-0.5,-6
C=CCn1c(SCC(N)=O)nc2sc3c(c2c1=O)CCC3,-5,-1.1,0,6.2,-2.5,4%,0.4,-14
CC(C)OC(=O)CSc1nnc(-c2ccccn2)n1N,9,-2.1,1,-1.8,4.6,7%,0.1,-3
C=CCn1c(O)c(N=NC(=O)CNC(=O)c2cccs2)c2ccccc21,4,-0.2,-33,3.8,3.3,2%,-0.4,-3
C/C=C\C(=O)Nc1cccc(C2=NOC3(C2)C[C@H](C(N)=O)N(C(=O)[C@H]2CCC(=O)N2)C3)c1 (stereo not given in full),-13,x,7,6.7,5.0,-4%,-1.5,-13
CCN(c1ccc(OC)cc1)S(=O)(=O)c1csc(C(N)=O)c1,-3,-5.7,6,5.4,4.0,-3%,-0.9,-7

# The listing continues:
SMILES,T cruzi inh,MLL AF4-AF9 inh,Calb FLC,RanGTP-Imp inh,LANA-H2A inh,Vif A3G,A1 inh,Beta apoptosis
Cc1sc2nc(SCC(=O)N3CCCCC3)[nH]c(=O)c2c1C,6,x,-1,3.2,-5.0,-5%,-0.9,1
O=C(O)C1(c2ccccc2)CCN(S(=O)(=O)c2ccc(Br)cc2)CC1,-6,-2.6,3,1.7,2.0,x,0.0,-7
NS(=O)(=O)c1cccc(NC(=O)c2cccc(-c3ccc(O)cc3)c2)c1,-3,-0.2,11,1.1,-3.0,-11%,0.0,-8
O=C(CN1C(=O)NC(c2ccc(F)cc2)C1=O)Nc1ccc2c(c1)OCCO2 (stereo not given),x,-2.3,x,x,-1.2,66%,3.1,0
O=C(Nc1cc(Cl)ccc1C(=O)O)c1ccc(CN2C(=O)c3ccccc3C2=O)cc1,-9,-2.2,-1,4.0,-1.8,x,0.7,-5
COc1cc(C(=O)OC(C)C(=O)NC(=O)NC2CCCCC2)ccc1OC(F)F (stereo not given),x,0.7,x,x,-3.0,-1%,0.9,-6
COc1cc(/C=C(\C#N)c2ccccn2)ccc1OCC(=O)Nc1cccc(C(F)(F)F)c1,6,x,-28,2.9,0.3,3%,-0.2,-5
CCc1cccc(C)c1NC(=O)CN(C)Cc1ccc(Br)cc1,16,1.8,1,-2.0,0.5,12%,1.2,-2
Cc1cc(=O)oc2cc(N3C(=O)CC(Cc4ccccc4)C3=O)ccc12 (stereo not given),-1,-1.2,-9,1.9,-2.3,x,-0.6,-2
Cc1ccc(-c2nnc(SCC(=O)Nc3cccnc3Cl)n2N)cc1,x,1.4,x,x,1.8,x,-0.4,-5
O=C(O)COc1ccc(Oc2ccccc2)cc1,-8,x,-7,-1.1,0.3,0%,-0.3,-2
Cc1c(CCOC(=O)c2cc([N+](=O)[O-])cc([N+](=O)[O-])c2)sc[n+]1CCCCS(=O)(=O)[O-],10,0.7,-8,-0.5,-1.6,-6%,0.3,-4
O=C(NC1CCCC1)C(c1ccc(Cl)cc1)N1CCOCC1 (stereo not given),-8,3.4,-4,-1.0,3.2,6%,0.9,-2
Cc1nn(CCC(N)=S)c2nc(-c3cccs3)cc(C(F)(F)F)c12,34,-3.7,-1,3.7,-6.5,-11%,0.2,3
